Screens deposited in PubChem BioAssay by several laboratories.
RecA intein inh: inhibitors of M. tuberculosis RecA intein splicing. P9WHJ3. cell-free RecA intein splicing, fluorescence. inhibition, %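 (about 9 µM by stock and volumes)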. 290,000 compounds, 0.75% hits. AID 2221; in the data active means inhibition above about 30%; inconclusive means no clear call, values can overlap the other calls;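 further: 0% = vehicle wells and 100% = reference inhibitor control wells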
Target sequence (P9WHJ3 whole entry, looked up): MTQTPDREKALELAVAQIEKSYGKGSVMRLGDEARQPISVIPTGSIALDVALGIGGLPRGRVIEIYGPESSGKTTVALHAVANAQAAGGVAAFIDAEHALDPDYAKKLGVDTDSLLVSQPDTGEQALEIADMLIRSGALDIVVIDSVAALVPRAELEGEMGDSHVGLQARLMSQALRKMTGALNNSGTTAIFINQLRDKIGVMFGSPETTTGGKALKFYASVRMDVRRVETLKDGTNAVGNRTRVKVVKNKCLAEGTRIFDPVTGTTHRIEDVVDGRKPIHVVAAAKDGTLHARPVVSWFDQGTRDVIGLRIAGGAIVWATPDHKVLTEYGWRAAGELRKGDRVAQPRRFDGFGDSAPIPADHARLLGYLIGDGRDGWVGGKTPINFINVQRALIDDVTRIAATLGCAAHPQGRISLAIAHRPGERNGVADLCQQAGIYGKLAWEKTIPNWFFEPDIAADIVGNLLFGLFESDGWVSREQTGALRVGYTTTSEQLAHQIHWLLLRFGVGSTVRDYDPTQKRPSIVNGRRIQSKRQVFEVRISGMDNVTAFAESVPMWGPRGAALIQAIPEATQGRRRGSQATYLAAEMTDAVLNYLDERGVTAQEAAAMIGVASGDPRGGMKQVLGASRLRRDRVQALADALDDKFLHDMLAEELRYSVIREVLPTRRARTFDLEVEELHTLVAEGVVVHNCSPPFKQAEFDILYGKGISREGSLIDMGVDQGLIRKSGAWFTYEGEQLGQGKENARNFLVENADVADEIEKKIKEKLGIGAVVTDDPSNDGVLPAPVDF
YopH PTP inh: inhibitors of Yersinia enterocolitica YopH tyrosine phosphatase. fluorescence Ex485/Em525. inhibition, %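 (about 10 µM by stock and volumes)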. 140,000 compounds, 0.16% hits. AID 898;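 active means inhibition of 50% or more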;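 further: controls were vehicle for no effect and minimum signal wells for full effect; inactives centre near -20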
Mtb H37Rv: M. tuberculosis H37Rv growth inhibitors, H37Rv strain (AID 1626) | M. tuberculosis H37Rv growth inhibition; higher % means a stronger effect | 220,000 compounds, 0.95% hits | inhibition, % at 10 µM; hits with a dose series show IC50 in µM;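 active means confirmed in a dose series; inconclusive means inhibition above 80% but not taken into the dose series; inactive means below 80% or under 30% at every dose of the series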;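 further: bacteria incubated seven days before Alamar blue readout; 0% = bacteria only wells and 100% = bacteria with antibiotic wells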
Mtb betalactam: beta-lactam sensitization of Mtb H37Rv | 330,000 compounds, 0.27% hits | M. tuberculosis H37Rv growth with meropenem, percent inhibition; hits of this screen are not shown here | AID 434955 | inhibition, % at 25 µM;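 active means about 74% or more and at least 40 points above the plate without the antibiotic, then above 30% in a dose series; inconclusive means first-round hits that could not be retested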;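 further: growth measured after seven days incubation then overnight dye step; 0% = bacteria only wells and 100% = bacteria with antibiotic; twin plates without the antibiotic show which effects depend on it; some results filed as inactive read as strong as hits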
Arbovirus anti: arbovirus infection inhibition. 200,000 compounds, 0.37% hits. arbovirus infection cell-based antiviral screen. inhibition, % at 10 µM;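 active means inhibition from about 30%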;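 further: bluetongue infection of BSR cells; cell survival read as ATP light after 72 h; 0% = infected wells without compound and 100% = uninfected wells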
Arbovirus anti repeat: recorded beside Arbovirus anti, whose call it bears; inhibition, %; measured here: 10K subset replicate screen; many hits read low in the repeat;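 first of two repeat runs on a subset; 0% = infected and 100% = uninfected wells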
Starred values were filed as active, the others as inactive; ? = inconclusive; . = not tested or not shown. A portion of the library; rates above refer to the full screens.

SMILES	RecA intein inh	YopH PTP inh	Mtb H37Rv	Mtb betalactam	Arbovirus anti	others
Nc1ccc(C(=O)Oc2ccc([N+](=O)[O-])cc2)c(O)c1	-0.7	.	74%	98	.
O=C(O)C1CC(=O)N(c2ccc(OCc3ccc(Br)cc3)cc2)C1 (centres undefined)	1.8	.	.	64	.
CSc1nc2cc(C)nn2c(-c2ccccc2Cl)c1C#N	-4.7	.	-16%	-6	.
Cc1ccc2c(C(=O)CN3CCCC(C)C3)c(C)[nH]c2c1 (centres undefined)	-1.1	.	.	-3	.
CCc1ccc(NCCC(=O)c2ccc(Br)cc2)cc1	-0.2	0	?	100	5
CN(C)c1cccc(C(=O)OCC(=O)Nc2ccccc2Cl)c1	-1.6	.	-2%	7	-6
COc1ccc(NC(c2ccccc2)c2ccncc2)cc1 (centres undefined)	-0.4	.	.	86	.
O=C(Nc1ccccc1C(F)(F)F)c1cc2ccccc2o1	0.1	.	.	2	.
O=C(CN1C(=O)c2cccnc2Oc2ccc(Cl)cc21)NC1CCCCC1	-0.6	.	.	?	.
O=C1C=C(c2cccc3c2oc2ccccc23)CCC1	-0.2	.	8%	32	.
Cc1ccccc1C(=O)NNC(=S)Nc1cccc(C(F)(F)F)c1	0.2	-13	17%	-5	-11
Cc1sc2nc(CN(C(=O)c3cccs3)C3CCCC3)[nH]c(=O)c2c1C	5.9	-23	-8%	-14	0
Cn1cc(C(=O)C(=O)N2CCCC2)c2ccccc21	-1.5	.	.	-6	.
CCc1ccc(NC(=O)CCNC(=O)Cn2cnc3ccccc3c2=O)cc1	0.1	.	.	-1	.
CN(C)/C=N/c1ncc(C(=O)c2ccccc2)s1	0.4	0	-12%	4	-2
CCOC(=O)N1CCC(NC(=O)c2cc(S(=O)(=O)N3CCCCC3)ccc2F)CC1	0.3	.	8%	-1	3
COc1ccc(/C=C/C(=O)NCC(=O)N2CCC(N(C)CCN3CCOCC3)CC2)cc1OC	-1.9	.	0%	-2	4
CCOC(=O)NS(=O)(=O)c1ccc(CCNC(=O)c2cc(C)on2)cc1	-3.0	-36	3%	-1	4
O=C(NCC1CCCO1)c1ccc(Br)s1 (centres undefined)	-1.0	.	.	-8	.
O=C(Nc1ccc2c(c1)OCO2)c1ccc([N+](=O)[O-])cc1[N+](=O)[O-]	-0.8	.	.	94	.
Cc1[nH]c2ccccc2c1SCc1nnc(SCc2ccc(Cl)cc2)n1C	0.4	.	-9%	-7	.
Cc1ccc2nc(NC(=O)CCn3c(=O)sc4ccccc43)sc2c1	4.0	-8	13%	4	6
CC1(C)CC(=O)C2=C(C1)N(c1ccc(F)cc1)C(=O)CC2c1cccnc1 (centres undefined)	0.3	-24	-5%	7	5	Arbovirus anti repeat=0
COc1cc2c(cc1OC)C(C)N(C(=O)c1cc3ccccc3o1)CC2 (centres undefined)	-3.6	-33	4%	63	0	Arbovirus anti repeat=-2
CC(=O)N/C(N)=N/c1nc2cc([N+](=O)[O-])ccc2o1	0.9	.	-1%	0	.
COc1ccc(S(=O)(=O)N2CCC(C(N)=O)(N3CCCCC3)CC2)cc1OC	0.0	.	.	2	.
COc1ccc(NC(=S)N2CCC(N(C)CCN3CCOCC3)CC2)cc1	-1.2	-18	-5%	5	9
COc1ccccc1/C=C/C(=O)OCc1nc2ccccc2c(=O)[nH]1	0.5	.	-8%	3	8
O=C1NC(c2ccc(Cl)cc2)Nc2ccccc21 (centres undefined)	-4.3	.	3%	2	-19
CCc1ccc(C(=O)NNc2cc(Cl)cc(Cl)c2)cc1	3.5	.	53%	96	.
CS(=O)(=O)N1CCC(C(=O)Nc2cccc([N+](=O)[O-])c2)CC1	-1.4	.	0%	18	-1
Cn1c(=O)[nH]c(=O)c2c1nc(Br)n2CCCO	0.5	-45	-7%	27	10
Cc1sc2c(c1C)C(=O)NC(c1ccccc1F)N2 (centres undefined)	-1.9	.	-10%	-10	.
C=C(C)c1cccc(C(C)(C)NC(=O)N2CCN(c3ccccc3OC)CC2)c1	-0.6	-28	2%	-1	1
COC(=O)c1ccc[n+](CCc2c[nH]c3ccccc23)c1	-1.3	.	8%	-9	.
CCn1c(N2CCN(C(=O)NC3CCCCC3)CC2)nc2ccccc21	7.2	5	-4%	-6	-15
Cc1cc(NC(=O)c2ccc3c(c2)OCCO3)no1	4.1	-31	3%	12	-16
COC(=O)N1C/C=C\C(c2ccc(OC)cc2)N(Cc2ccc(F)cc2)C(=O)C1 (centres undefined)	1.6	.	-4%	1	.
c1ccc2c(CN3CCSCC3)cccc2c1	-1.2	.	.	-6	.
c1ccc(CNCC2COc3ccccc3O2)cc1 (centres undefined)	-0.1	40	0%	-1	-2

An excerpt from above in order of length of the SMILES, lowest first.
SMILES	RecA intein inh	YopH PTP inh	Mtb H37Rv	Mtb betalactam	Arbovirus anti	others
Cc1cc(NC(=O)c2ccc3c(c2)OCCO3)no1	4.1	-31	3%	12	-16
Cn1c(=O)[nH]c(=O)c2c1nc(Br)n2CCCO	0.5	-45	-7%	27	10
Cc1[nH]c2ccccc2c1SCc1nnc(SCc2ccc(Cl)cc2)n1C	0.4	.	-9%	-7	.

Reprinted at random: 2 compounds from above.
SMILES	RecA intein inh	YopH PTP inh	Mtb H37Rv	Mtb betalactam	Arbovirus anti	others
CCc1ccc(NCCC(=O)c2ccc(Br)cc2)cc1	-0.2	0	?	100	5
COc1ccc(NC(=S)N2CCC(N(C)CCN3CCOCC3)CC2)cc1	-1.2	-18	-5%	5	9

Next part
SMILES	RecA intein inh	YopH PTP inh	Mtb H37Rv	Mtb betalactam	Arbovirus anti	others
O=C(NCCN1CCc2ccccc2C1)Nc1ccc([N+](=O)[O-])cc1	-1.6	.	4%	-12	16
CCC(C)NC(=S)NNC(=O)c1ccncc1 (centres undefined)	3.0	.	8%	-3	5
COc1ccc(NC(=O)CSc2c3c(nc4cc(Cl)ccc24)CCCC3)cc1OC	-12	-15	4%	0	-42
CCn1c(=O)c(C(=O)NCc2ccc(OC)cc2)c(O)c2ccccc21	2.6	-9	-14%	-12	-4
CCOC(=O)c1sc(N)c(C#N)c1CSc1nnc(C2CCCCC2)n1N	18	-36	-5%	-10	-1
FC(F)(F)c1ccc(N/N=C/c2cccnc2)nc1	-1.3	.	.	-2	.
Cc1ccc(C)c(NC(=O)CSc2nnc(CSc3nc(C)cc(C)n3)n2Cc2ccco2)c1	1.8	-16	0%	-4	4
Cc1cccc(NC(=O)NNC(=O)c2c(Cl)c(C)nn2C)c1	5.3	-33	-7%	-2	4
COc1ccc(CC(=O)NC(C)c2nnc(SCCC(=O)Nc3ccccc3)n2C)cc1 (centres undefined)	-0.2	.	5%	-10	0
CC(=O)Nc1c(O)nc(SCC(=O)Nc2cccc(C)c2)[nH]c1=O	-3.0	-1	-11%	2	0
O=C(CSc1ncccn1)NC(=O)Nc1ccc2c(c1)OCCO2	-0.2	.	23%	0	-4
COc1ccccc1CNC(=O)c1ccc(CS(=O)(=O)c2ccc(C)cc2)o1	2.1	.	.	-1	.
CN1CCN(c2ccc(Cl)cc2NC(=O)/C=C/c2ccc(F)cc2)CC1	4.0	.	70%	94	-31
CC(=O)C(Sc1nn(C)c(=S)s1)C(=O)Nc1ccccc1 (centres undefined)	3.1	-46	-2%	-13	4
O=C(O)CN1CCN(Cc2ccc(F)cc2Cl)C1=O	2.3	-28	-12%	4	12
CN(C)c1nc(Nc2ccccc2)nc(N(C)C)n1	-0.5	-32	-2%	?	-9
OC1CCCN(Cc2nc(Cc3ccccc3Cl)no2)C1 (centres undefined)	4.4	.	7%	-8	4
CC(=O)c1ccc(NC(=O)C(C)OC(=O)COc2ccc(C#N)cc2)cc1 (centres undefined)	0.6	-1	2%	1	1
O=C(CSc1cn(Cc2ccccc2)c2ccccc12)N1CCOCC1	2.7	-45	-4%	3	4
COc1ccccc1-c1noc(CCC(=O)Nc2cccc(C)c2)n1	2.9	-46	3%	-2	-4
CC(=O)Nc1coc2ccc(Br)cc12	-1.6	-30	5%	-9	1
COC(=O)c1c(NC(NC(=O)c2ccccc2)(C(F)(F)F)C(F)(F)F)sc2c1CCN(C)C2	-4.8	-14	6%	7	5
O=C(COC(=O)C1CC(=O)N(c2ccc3c(c2)OCCO3)C1)NC1CCCc2ccccc21 (centres undefined)	1.0	-41	-1%	-4	0
O=C(OCc1nnc(-c2ccccc2)o1)c1ccc([N+](=O)[O-])o1	-2.1	.	.	93	.
CCc1ccc(NC(=O)C2CCN(c3c(N4CCCC4)c(=O)c3=O)CC2)cc1	-5.0	.	.	0	.
O=C(N=C1SC2CS(=O)(=O)CC2N1Cc1ccccc1)C1CCCO1 (centres undefined)	-1.4	.	.	-1	.
CCc1cccc(CC)c1NC(=S)NCC(c1cccnc1)N1CCOCC1 (centres undefined)	-0.6	-8	-4%	1	-2
Cc1cc(NC(=O)c2ccco2)ncc1NC(=O)CCc1ccccc1	-0.7	-37	.	55	4
O=C(NCc1ccccc1Cl)c1ccccc1Oc1ccccc1	-0.1	6	.	9	-5
COC(=O)C1=C(c2cccc(OC)c2OC)C[C@@H]2CC[C@H]1N2C(=O)NCc1ccccc1	-1.4	.	-7%	-11	.
COc1ccccc1S(=O)(=O)Nc1cc(S(=O)(=O)N2CCCCC2)ccc1N1CCOCC1	-1.6	.	4%	-6	2
C#CCOCCOCCOCCNc1nc(N2CCOCC2)nc(N2CCN(C(=O)[C@H](Cc3cc4ccccc4[nH]3)n3cc([C@@H](N)Cc4ccc(O)cc4)nn3)CC2)n1	-0.1	.	52%	82	3
Cc1ccc(C(=O)Nc2ccc(N3CCN(S(C)(=O)=O)CC3)cc2)cc1C	4.8	.	-8%	-4	-2
COc1ccc(-n2c(Cc3cccn3C)nnc2SCC(=O)Nc2ccccc2F)cc1	3.3	-10	1%	0	-4
CC1CCCC(N2CCN(C(=O)c3ccc([N+](=O)[O-])cc3)CC2)C1 (centres undefined)	-1.7	.	.	-3	.
CC1(c2nnc(-c3ccccc3)o2)CC(c2ccc([N+](=O)[O-])cc2)=NO1 (centres undefined)	1.6	.	-3%	-5	.
CCOC(=O)C1(Cc2ccc(OC)cc2)CCN(C(=O)CCn2cccn2)CC1	0.3	.	-7%	-10	.
O=C(c1ccccc1)c1ccc(NCCCn2ccnc2)c([N+](=O)[O-])c1	-0.8	.	.	4	.
COc1ccc(OCC(=O)NC(=S)Nc2ccc(S(=O)(=O)Nc3cc(OC)nc(OC)n3)cc2)cc1	-0.8	-29	-1%	2	1
O=C1OC(c2ccccc2)=NC12CC2c1ccc(Cl)cc1 (centres undefined)	22	-9	-3%	70	-5
NC(=O)c1cc(S(=O)(=O)Nc2cccc(F)c2)co1	0.9	-44	-7%	-4	4	Arbovirus anti repeat=0
O=C(Cc1ccc(Cl)cc1)NNC(=O)c1cnccn1	2.3	-14	79%	41	-26
OC(Cn1cncn1)(c1ccc(F)cc1)c1ccc(Cl)cc1 (centres undefined)	-1.0	.	.	3	.
Cc1nn(CCC(=O)NNC(=S)Nc2ccc([N+](=O)[O-])cc2)c(C)c1[N+](=O)[O-]	-1.2	.	2%	-4	22
CC(C)CCC1(CCc2ccncc2)C(=O)NC(=O)NC1=O	0.3	-1	-15%	3	-1
CC(=O)N1C(=O)N(C)C2C1N(C)C(=O)N2C(C)=O (centres undefined)	2.0	-48	-9%	-6	10
CCOC(=O)c1cccc(NC(=O)CN(c2ccc(C)cc2)S(=O)(=O)c2c(C)n[nH]c2C)c1	1.5	-26	-4%	-4	-33
CC1CCN(C(=O)CC(NC(N)=O)c2ccccc2Cl)CC1 (centres undefined)	-0.4	.	.	-4	.
O=C(NC1CN2CCC1CC2)c1cccc(Cl)c1 (centres undefined)	-0.6	.	.	-6	.
O=C(NC1CCN(Cc2ccccc2)CC1)C1CCCN(S(=O)(=O)c2cccc3nonc23)C1 (centres undefined)	-0.6	-8	-7%	-6	-4
CCc1ccccc1N(CC(=O)NCc1ccccc1)C(=O)CCC(=O)Nc1ccccn1	-0.2	.	.	-2	.
O=C1[C@H]2[C@@H](/C=C/c3ccccc3)N3C(=O)CN(Cc4ccccn4)C(=O)[C@@]3(Cc3ccccc3)[C@H]2C(=O)N1c1ccccc1	0.6	.	.	-10	.
CCCC(=O)Nc1c(C(=O)OCC)[nH]c2ccccc12	-1.5	-19	-3%	-5	5

Among those listed so far, 5 have a thiophene ring, fused or not.
SMILES	RecA intein inh	YopH PTP inh	Mtb H37Rv	Mtb betalactam	Arbovirus anti	others
Cc1sc2nc(CN(C(=O)c3cccs3)C3CCCC3)[nH]c(=O)c2c1C	5.9	-23	-8%	-14	0
O=C(NCC1CCCO1)c1ccc(Br)s1 (centres undefined)	-1.0	.	.	-8	.
Cc1sc2c(c1C)C(=O)NC(c1ccccc1F)N2 (centres undefined)	-1.9	.	-10%	-10	.
CCOC(=O)c1sc(N)c(C#N)c1CSc1nnc(C2CCCCC2)n1N	18	-36	-5%	-10	-1
COC(=O)c1c(NC(NC(=O)c2ccccc2)(C(F)(F)F)C(F)(F)F)sc2c1CCN(C)C2	-4.8	-14	6%	7	5
